FPR binder: human FPR ligands by binding competition, primary screen, cell-based, FPRL1 counter-screen, flow cytometry. inhibition, %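 (tested at 6.7 µM)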. FPR-expressing cells, fluorescent ligand binding. 24,000 tested, 0.74% active. AID 440, 2006;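 note: 0% = buffer wells and 100% = receptor blocker peptide wells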
Target sequence (P21462 whole entry, looked up): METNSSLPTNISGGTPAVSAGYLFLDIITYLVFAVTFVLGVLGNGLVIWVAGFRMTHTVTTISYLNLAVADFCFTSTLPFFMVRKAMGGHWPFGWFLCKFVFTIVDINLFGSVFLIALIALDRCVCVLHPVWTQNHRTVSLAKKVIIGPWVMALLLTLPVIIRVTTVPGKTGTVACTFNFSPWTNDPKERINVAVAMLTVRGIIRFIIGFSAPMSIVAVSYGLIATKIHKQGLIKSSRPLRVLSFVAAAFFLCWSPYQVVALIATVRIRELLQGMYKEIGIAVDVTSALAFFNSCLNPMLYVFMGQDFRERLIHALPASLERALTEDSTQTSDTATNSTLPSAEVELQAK
VCAM-1 down: inhibitors of TNFa-induced VCAM-1 surface display, cell-based, plate reader, pooled HUVEC, TNFa stimulus (AID 454) | HUVEC TNFa-induced VCAM-1 surface immunofluorescence, plate reader; numbers were filed only for top-ranked candidate wells | inhibition, % at 5 µM | 10,000 tested, 0.2% active;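 active = compound among top-ranked inhibitors of TNF-induced VCAM-1 adhesion protein staining, with the hit upheld by image or statistical review; inactive = the rest, including hits rejected on review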;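 note: 0% = TNFa with vehicle and 100% = cells without TNFa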
VCAM-1 imaging: inhibitors of TNFa-induced VCAM-1 surface display, imaging, high-content imaging, pooled HUVEC, TNFa stimulus (AID 456) | one-dose inhibition, % at 5 µM; IC50 in µM for titrated hits | 10,000 tested, 0.2% active | HUVEC TNFa-induced VCAM-1 surface expression, immunofluorescence imaging; numbers were filed only for top-ranked candidate wells;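 active = top tenth filtered wells with inhibition above zero that passed visual or statistical confirmation; inactive = the rest, including hits rejected on review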;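 note: 0% = stimulated vehicle wells and 100% = unstimulated cells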
VCAM-1 augmentation: enhancers of VCAM-1 display on endothelial cells, imaging, high-content imaging, pooled HUVEC, TNFa stimulus (AID 457). Pooled HUVEC, TNFa-induced VCAM-1 immunofluorescence imaging; hits of this screen are not shown here. calls only. 10,000 tested, 0.2% active;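 active = a top-ranked rise in VCAM-1 staining upheld on image or statistical review; inactive = the rest, including candidates rejected on review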;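 note: compounds tested at 5 µM in the well; cells exposed to compound for 24 hours before fixing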
FPRL1 ligand: human FPRL1 ligands by binding competition, primary screen, cell-based, FPR counter-screen, flow cytometry. N-formyl peptide receptor 2 (Homo sapiens), P25090. FPRL1-expressing cells, fluorescent ligand binding inhibition. inhibition, %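 (tested at 6.7 µM)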. 24,000 tested, 0.3% active. AID 441, 2006;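 note: 0% = buffer alone and 100% = receptor blocker peptide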
Target sequence (P25090 whole entry, looked up): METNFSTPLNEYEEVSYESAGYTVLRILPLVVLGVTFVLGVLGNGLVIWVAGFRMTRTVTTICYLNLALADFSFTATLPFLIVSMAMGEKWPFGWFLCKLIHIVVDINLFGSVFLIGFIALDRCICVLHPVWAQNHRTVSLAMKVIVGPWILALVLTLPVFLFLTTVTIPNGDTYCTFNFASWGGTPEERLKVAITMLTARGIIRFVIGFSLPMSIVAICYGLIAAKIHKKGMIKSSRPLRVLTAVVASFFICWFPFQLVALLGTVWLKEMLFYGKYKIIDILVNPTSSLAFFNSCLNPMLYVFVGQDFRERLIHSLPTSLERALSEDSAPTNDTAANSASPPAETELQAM
* hit, by the source's call.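 Rule for the calls, unless noted: active = mean above 30%; inconclusive = self-fluorescent; inactive = the rest.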 Not all compounds are listed; count on the stated rates, not on these rows.

Cc1sc(NC(=O)CSc2nnc(COc3ccccc3)n2C)c(C#N)c1C was read as FPR binder 2, VCAM-1 down inactive, VCAM-1 imaging inactive, VCAM-1 augmentation inactive and FPRL1 ligand -12.
For Cc1nc2ccccc2c(=O)n1/N=C/c1ccncc1 the results were FPR binder -4, VCAM-1 down inactive, VCAM-1 imaging inactive, VCAM-1 augmentation inactive and FPRL1 ligand -7.
FC(F)(F)c1cccc(N2Cc3ccccc3C2)c1 was read as FPR binder -3 and FPRL1 ligand -1.
Screening COc1ccccc1OCC(=O)N(Cc1nc(-c2ccc(Cl)cc2)no1)C(C)C returned FPR binder 0 and FPRL1 ligand 4.
CCOc1ccc(NC(=O)N(CCN(C)C)C(C)c2ccncc2)cc1 (configuration not stated) was read as FPR binder 2 and FPRL1 ligand -2.
Screening CCCOc1nc(N)c(C#N)c(-c2ccccc2F)c1C#N returned FPR binder 1, VCAM-1 down inactive, VCAM-1 imaging inactive, VCAM-1 augmentation inactive and FPRL1 ligand -3.
Screening CCN(CC)CCNC(=O)C1CCN(S(=O)(=O)N2CCCCC2)CC1 returned FPR binder 9, VCAM-1 down inactive, VCAM-1 imaging inactive, VCAM-1 augmentation inactive and FPRL1 ligand -1.
Screening COc1cc(NC(=O)C2CCCN(S(=O)(=O)c3cccc4nsnc34)C2)cc(OC)c1 (configuration not stated) returned FPR binder -5 and FPRL1 ligand -11.
Screening Cc1ccc2cc(C#N)c(NCCCNC(=O)C3CCCO3)nc2c1 (configuration not stated) returned FPR binder -4, VCAM-1 down inactive, VCAM-1 imaging inactive, VCAM-1 augmentation inactive and FPRL1 ligand -1.
Screening CC(C)CCn1c(NCCc2ccccc2)nc2c1c(=O)n(C)c(=O)n2C returned FPR binder -5, VCAM-1 down inactive, VCAM-1 imaging inactive, VCAM-1 augmentation inactive and FPRL1 ligand -2.
Cc1cccc2cc(CN(Cc3nnnn3Cc3ccco3)C3CCCC3)c3nnnn3c12 was read as FPR binder -6, VCAM-1 down inactive, VCAM-1 imaging inactive, VCAM-1 augmentation inactive and FPRL1 ligand 6.
Screening COc1ccccc1OCc1ccc(C(=O)N2CCN3CCCC3C2)cc1 (configuration not stated) returned FPR binder -5 and FPRL1 ligand -6.
COc1ccc(-c2cc(C(F)F)n3ncc(C(=O)NCCCN4CCCC4=O)c3n2)cc1 was read as FPR binder -3 and FPRL1 ligand 3.
Screening CCOC(=O)N1CCC(Nc2cc(C)nc3c(-c4ccccc4OC)c(C)nn23)CC1 returned FPR binder 7 and FPRL1 ligand 2.
For O=C(c1ccc2c(c1)OCO2)N1CCN=C1SCc1ccccc1 the results were FPR binder 5 and FPRL1 ligand 1.
`O=C(NCc1ccc2c(c1)OCO2)c1cnc2ccccn2c1=O` gave FPR binder -3 and FPRL1 ligand -6.
Screening COc1ccc(N2CCN(C(=O)CCS(=O)(=O)c3cccc4nsnc34)CC2)cc1 returned FPR binder -2 and FPRL1 ligand 0.
N#CC1=C(N)SC(N)=C(C#N)C1c1ccc(C(F)(F)F)cc1 was read as FPR binder -2, VCAM-1 down inactive, VCAM-1 imaging inactive, VCAM-1 augmentation inactive and FPRL1 ligand 10.
COc1cc(C(=O)N2CCN(C(=O)c3ccccc3)CC2)cc(OC)c1OC was read as FPR binder 0 and FPRL1 ligand 1.
For CCOC(=O)N1CCN(C(=O)C2CCN(S(=O)(=O)CC)CC2)CC1 the results were FPR binder 3 and FPRL1 ligand 1.
`O=C(CN1CCN(CC(=O)Nc2ccccc2C(F)(F)F)CC1)Nc1ccccc1F` gave FPR binder 2 and FPRL1 ligand 0.
Cc1ccccc1-c1noc(-c2cccs2)n1 was read as FPR binder -4 and FPRL1 ligand -7.
COc1ccc(N(CC(=O)NC2CCCCCCC2)S(=O)(=O)c2c(C)nn(C)c2C)cc1 was read as FPR binder 5 and FPRL1 ligand -4.
`CN(C)CCCNC(=O)CCC1CCCCC1` gave FPR binder 1, VCAM-1 down inactive, VCAM-1 imaging inactive, VCAM-1 augmentation inactive and FPRL1 ligand 1.
`CCOC(=O)N1CCN(C(c2ccccc2)c2sc3nc(C)nn3c2O)CC1` (configuration not stated) gave FPR binder -1 and FPRL1 ligand -3.
Screening CCOC(=O)c1sc2ncnc(N3CCN(c4ccc(OC)cc4)CC3)c2c1C returned FPR binder -6 and FPRL1 ligand 1.
Screening Cc1cc(N2CCN(C)CC2)nc(N2CCOCC2)n1 returned FPR binder 8, VCAM-1 down inactive, VCAM-1 imaging inactive, VCAM-1 augmentation inactive and FPRL1 ligand 0.
CC(C)OC(=O)CCCCCN1C(=O)CSC1=S was read as FPR binder -1, VCAM-1 down inactive, VCAM-1 imaging inactive, VCAM-1 augmentation inactive and FPRL1 ligand -1.
For O=C(NCCCc1ccccc1)c1cnc2n(c1=O)CCS2 the results were FPR binder -1 and FPRL1 ligand -4.
Screening CN(C)C(=O)N1CCCC(C(=O)NCc2cccs2)C1 (configuration not stated) returned FPR binder 0 and FPRL1 ligand -1.
Screening Cc1cnc(N)c2c(=O)oc3ccccc3c12 returned FPR binder -3 and FPRL1 ligand -3.
`Cc1cccc(N2CCN(c3nc4ccccc4n4cnnc34)CC2)c1C` gave FPR binder 5 and FPRL1 ligand -8.
`CC(=O)NC(CCS(C)(=O)=O)C(=O)Nc1cccc(C)c1` (configuration not stated) gave FPR binder -10, VCAM-1 down inactive, VCAM-1 imaging inactive, VCAM-1 augmentation inactive and FPRL1 ligand 2.
For CCOC(=O)C(CC)n1nc(C)n2c(cc3sccc32)c1=O (configuration not stated) the results were FPR binder -2, VCAM-1 down inactive, VCAM-1 imaging inactive, VCAM-1 augmentation inactive and FPRL1 ligand 3.
`COc1ccc(Cc2nn3c(-c4cc(OC)c(OC)c(OC)c4)nnc3s2)cc1` gave FPR binder 5, VCAM-1 down inactive, VCAM-1 imaging inactive, VCAM-1 augmentation inactive and FPRL1 ligand -5.
For CC(=O)NCc1ccc(C(=O)CSc2nnc(-c3ccncc3)n2Cc2ccccc2)o1 the results were FPR binder -5, VCAM-1 down inactive, VCAM-1 imaging inactive, VCAM-1 augmentation inactive and FPRL1 ligand -2.
For N#CCCN1CCN(Cc2cc(-c3ccccc3)ccc2O)CC1 the results were FPR binder -8 and FPRL1 ligand 3.
For CCOC(=O)c1c(C)c(C(=O)N2CCc3ccccc3C2)c(C)n1CC the results were FPR binder 10 and FPRL1 ligand 2.
For N#CCCN1CCN(S(=O)(=O)c2ccc(S(=O)(=O)NC3CC3)cc2)CC1 the results were FPR binder -1 and FPRL1 ligand 0.
`COC(=O)c1ccc(NC(=O)C2CCCN(S(=O)(=O)c3cnc[nH]3)C2)cc1` (configuration not stated) gave FPR binder -1 and FPRL1 ligand 5.
Screening O=C(CCn1c(=S)[nH]c2ccccc2c1=O)N1CCN(c2ccccn2)CC1 returned FPR binder 3 and FPRL1 ligand -2.
For COc1cccc(OC)c1C(=O)N1CCN=C1SCc1cccnc1 the results were FPR binder 0 and FPRL1 ligand 2.
`Cc1ccc(CN2C(=O)CCC2C(=O)NCCCN2CCCC(C)C2)cc1` (configuration not stated) gave FPR binder -2, VCAM-1 down inactive, VCAM-1 imaging inactive, VCAM-1 augmentation inactive and FPRL1 ligand -2.
Screening COc1ccc(Cl)cc1S(=O)(=O)N1CCN(C(=O)COc2ccccc2)CC1 returned FPR binder 1 and FPRL1 ligand -4.
Screening O=C(O)Cc1ccccc1C(=O)O returned FPR binder 8, VCAM-1 down inactive, VCAM-1 imaging inactive, VCAM-1 augmentation inactive and FPRL1 ligand 2.
CC(C)Sc1oc(-c2ccco2)nc1S(=O)(=O)c1ccc(F)cc1 was read as FPR binder -1 and FPRL1 ligand 2.
`CCC(Sc1ncccc1C(=O)O)C(=O)N1CCOCC1` (configuration not stated) gave FPR binder 5 and FPRL1 ligand 2.
Screening O=C(CN1CCN(c2ccccc2F)CC1)c1ccc2c(c1)OCO2 returned FPR binder -3 and FPRL1 ligand -9.
`O=C(NCc1ccc2c(c1)OCO2)C1CCCN(S(=O)(=O)c2cccc3nonc23)C1` (configuration not stated) gave FPR binder 3 and FPRL1 ligand 6.
`CC(C)Sc1oc(-c2ccco2)nc1S(=O)(=O)c1ccccc1` gave FPR binder 4 and FPRL1 ligand -15.

Of the compounds above, these contain a Cl atom:
Screening COc1ccccc1OCC(=O)N(Cc1nc(-c2ccc(Cl)cc2)no1)C(C)C returned FPR binder 0 and FPRL1 ligand 4.
Screening COc1ccc(Cl)cc1S(=O)(=O)N1CCN(C(=O)COc2ccccc2)CC1 returned FPR binder 1 and FPRL1 ligand -4.

Structures from the list above containing a furan ring, fused or not (four):
Cc1cccc2cc(CN(Cc3nnnn3Cc3ccco3)C3CCCC3)c3nnnn3c12 was read as FPR binder -6, VCAM-1 down inactive, VCAM-1 imaging inactive, VCAM-1 augmentation inactive and FPRL1 ligand 6.
For CC(=O)NCc1ccc(C(=O)CSc2nnc(-c3ccncc3)n2Cc2ccccc2)o1 the results were FPR binder -5, VCAM-1 down inactive, VCAM-1 imaging inactive, VCAM-1 augmentation inactive and FPRL1 ligand -2.
CC(C)Sc1oc(-c2ccco2)nc1S(=O)(=O)c1ccc(F)cc1 was read as FPR binder -1 and FPRL1 ligand 2.
`CC(C)Sc1oc(-c2ccco2)nc1S(=O)(=O)c1ccccc1` gave FPR binder 4 and FPRL1 ligand -15.

Carrying on:
`O=C(CN1CCN(c2ccc(Cl)cc2)CC1)Nc1ccc(F)c(F)c1` gave FPR binder 2 and FPRL1 ligand 0.
COCCN1C(=O)C(=O)/C(=C(/O)c2cccc(OC)c2)C1c1ccncc1 (configuration not stated) was read as FPR binder 3, VCAM-1 down inactive, VCAM-1 imaging inactive, VCAM-1 augmentation inactive and FPRL1 ligand -1.
Screening CCOc1ccc(OCC)c(NC(=O)CCn2cccc2)c1 returned FPR binder -2 and FPRL1 ligand -1.
For CSC1=NCCN1C(=O)c1cccs1 the results were FPR binder 3 and FPRL1 ligand 4.
Screening O=C(CCS(=O)(=O)c1cccc2nonc12)N1CCOCC1 returned FPR binder -5 and FPRL1 ligand -7.
O=C(O)CCC(=O)NC1CCCCC1NC(=O)CCC(=O)O (configuration not stated) was read as FPR binder 6, VCAM-1 down inactive, VCAM-1 imaging inactive, VCAM-1 augmentation inactive and FPRL1 ligand 4.
`COc1ccc(Cn2c(=O)[nH]c3cc(C(=O)N4CCN(Cc5ccccc5)CC4)ccc3c2=O)cc1` gave FPR binder 8 and FPRL1 ligand 10.
Screening C=CCOc1ccc(/C(O)=C2/C(=O)C(=O)N(CCCN3CCOCC3)C2c2ccc(OC)cc2)cc1 (configuration not stated) returned FPR binder 2 and FPRL1 ligand 3.
CC1CCN(CCCNC(=O)C2CC(=O)N(C3CCCCCC3)C2)CC1 (configuration not stated) was read as FPR binder -6 and FPRL1 ligand -5.
Screening CC(C)OC(=O)C1C(=O)CC(C)(O)C(C(=O)OC(C)C)C1c1cccc(O)c1 (configuration not stated) returned FPR binder -3 and FPRL1 ligand 2.
For CCOC(=O)c1c(C)oc2c1c1c(c3ccccc32)OCN(Cc2cccnc2)C1 the results were FPR binder 2, VCAM-1 down inactive, VCAM-1 imaging inactive, VCAM-1 augmentation inactive and FPRL1 ligand 4.
For Cc1ccccc1-n1c(Cn2c(=O)sc3ccccc32)nnc1SCC(=O)N1CCOCC1 the results were FPR binder -19 and FPRL1 ligand -9.
CC(=O)C1=C(O)C(=O)N(c2ccc(C(=O)O)cc2)C1c1ccccc1 (configuration not stated) was read as FPR binder -3, VCAM-1 down inactive, VCAM-1 imaging inactive, VCAM-1 augmentation inactive and FPRL1 ligand 0.
CCC(C)NC(=O)CCNS(=O)(=O)c1ccc(Br)cc1 (configuration not stated) was read as FPR binder 2, VCAM-1 down inactive, VCAM-1 imaging inactive, VCAM-1 augmentation inactive and FPRL1 ligand -1.
For CCS(=O)(=O)NCCc1cc2cc(C)c(C)cc2[nH]c1=O the results were FPR binder 2 and FPRL1 ligand -1.
`O=C(CCCC1=NS(=O)(=O)c2ccccc2N1)N1CCN(c2ccccc2)CC1` gave FPR binder -2 and FPRL1 ligand 0.

3 consecutive records from above:
Cc1sc(NC(=O)CSc2nnc(COc3ccccc3)n2C)c(C#N)c1C was read as FPR binder 2, VCAM-1 down inactive, VCAM-1 imaging inactive, VCAM-1 augmentation inactive and FPRL1 ligand -12.
For Cc1nc2ccccc2c(=O)n1/N=C/c1ccncc1 the results were FPR binder -4, VCAM-1 down inactive, VCAM-1 imaging inactive, VCAM-1 augmentation inactive and FPRL1 ligand -7.
FC(F)(F)c1cccc(N2Cc3ccccc3C2)c1 was read as FPR binder -3 and FPRL1 ligand -1.
